Sfp inh: qHTS Assay for Inhibitors of Bacillus subtilis Sfp phosphopantetheinyl transferase (PPTase); hit rate 3.5% among 310,000; Biochemical Sfp PPTase activity, qHTS; Potency, µM, for inactives: max response, negative = inhibition, usual class: inhibitors; active = well fitted inhibition curve with a large enough effect; inconclusive = small, poorly fitted or top-dose-only effect, or another doubt; inactive = no such curve, though single readings can be large or run the other way;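 note: the enzyme is Sfp with the accession as filed and its product quenches rhodamine fluorescence; potency is the fitted concentration of half-maximal effect; 0% = enzyme reaction without inhibitor and -100% = no enzyme wells; top concentration of the series not given in the record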
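Compounds were incubated with enzyme (final 15 nM) for 15 min at room temperature before substrate addition started the reaction. Fluorescence at 525 nm excitation, 598 nm emission was recorded immediately and after 30 minutes.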
gsp antag: qHTS for Antagonists of gsp, the Etiologic Mutation Responsible for Fibrous Dysplasia/McCune-Albright Syndrome: qHTS; hit rate 0.4% among 340,000; gsp-mutant cells, cAMP HTRF, 30 min; control for the full effect not named in the record; Potency, µM (highest dose often 76.9 µM), for the others: at the top dose activity change, negative = inhibition, usual class: inhibitors; active = falling curve of any shape with a large fitted effect; inconclusive = falling curve, mostly with a smaller effect; inactive = flat or rising curve; cell line not stated here;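 note: intracellular cAMP measured with PDE inhibitor Ro 20-1724 present during compound exposure; potency is the fitted concentration of half-maximal effect; % is set by controls: 0 for no effect and ±100 for the full control effect; nearly all actives have a fitted effect of over 65% in size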
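HTRF cAMP measurement after 30 min RT detection following 30 min, 37C compound treatment alongside […] (added as 300 uM solution) in G418-selected cells seeded at 2000/well and grown 16–24 h.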
gsp ag: qHTS for Agonist of gsp, the Etiologic Mutation Responsible for Fibrous Dysplasia/McCune-Albright Syndrome: qHTS | gsp mutant cells, cAMP HTRF, 30 min; control for the full effect not named in the record | Potency, µM (series often up to 76.9 µM), without a hit: at the top dose activation (cAMP increase), actives largely listed as activators | hit rate 0.13% among 340,000 | AID 624287, 2012; active = well fitted activation curve with a large enough effect; inconclusive = small, poorly fitted or top-dose-only effect, or another doubt; inactive = no such curve, though single readings can be large or run the other way; cell line not stated here;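 note: phosphodiesterase inhibitor Ro 20-1724 added with compounds to block cAMP breakdown; potency is the fitted concentration of half-maximal effect; nearly all actives have a fitted effect of over 60% in size; about a fifth of the inactives were tested at one dose only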
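Cells in DMEM/10% FBS with G418 were pretreated with compounds in DMSO plus […] (300 uM stock) for 30 min at 37C. cAMP was measured by HTRF (cAMP-d2 plus anti-cAMP antibody-K) after 30 min at room temperature.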
Menin-MLL FL inh: qHTS Assay for Inhibitors Targeting the Menin-MLL Interaction in MLL Related Leukemias: Competition With Fluorescein Labeled MLL-derived Peptide; 290,000 tested, under 10 active; AID 1766, 2009; FP activity change, % at 61.4 µM; Fluorescence polarization, fluorescein-MLL peptide displacement from menin; inconclusive = falling polarisation curve, or a change in total fluorescence; inactive = total fluorescence flat and polarisation flat or rising; no compound was filed as active; the % refers to the polarisation; negative = inhibition;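 note: % of control where 0% means no effect; inhibitors lower the polarisation; unlabelled MLL peptide was the positive control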
TRPV1 PAM: HTS Assay for Compounds that Act as Potentiators of the Vanilloid Receptor 1. Transient receptor potential cation channel subfamily V member 1 (Homo sapiens), Q8NER1. TRPV1-expressing cells, Fluo-8 calcium influx, capsaicin EC20 potentiation; host cell line not named in the record; control for the full effect not named in the record. potentiation, % at 8.33 µM. hit rate 0.02% among 320,000. AID 540277, 2011; active means potentiation above 80%; inconclusive means 30% to 80%; inactive means below 30%; note: 0% is about no effect
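TRPV1-expressing cells were cultured overnight at 35.5C and loaded with Fluo-8 calcium dye for 40 to 90 min at room temperature. After a 10 s baseline, compound was added and calcium influx was read kinetically for 3 min (ex 480/em 520 nm).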
ClpP mod: qHTS Assay for Activators of ClpP | purified B. subtilis ClpP, FRET peptide cleavage, 20 min | Potency, µM (titrated, usually from 57.5 µM), without a hit: top-dose activity change, negative = active | hit rate 1.9% among 340,000 | AID 651965, 2013; active = well fitted falling curve with a large enough effect; inconclusive = small, poorly fitted or top-dose-only effect; inactive = no such curve, though single readings can be large or run the other way; note: potency is the fitted concentration of half-maximal effect; the source files actives as falling curves though it sought activators and does not explain the sign; nearly all actives have a fitted effect of over 65% in size; many hits overshoot -100%
Target sequence (P80244 whole entry, looked up): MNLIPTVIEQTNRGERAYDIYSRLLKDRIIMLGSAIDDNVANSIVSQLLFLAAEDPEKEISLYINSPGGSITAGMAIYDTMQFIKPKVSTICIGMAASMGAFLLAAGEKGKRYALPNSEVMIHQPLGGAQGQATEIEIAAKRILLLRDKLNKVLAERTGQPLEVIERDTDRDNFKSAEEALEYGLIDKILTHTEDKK
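FRET quenching reversal measured ClpP activation: 10 microg/mL B. subtilis ClpP at pH 8 with the FRET-FV decapeptide, read at 430 nm after 320 nm excitation. The 20-min minus 0-min signal was scaled between DMSO/no-enzyme wells and ADEP (5.8 microM final).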
D2 potentiator: Beta-Arrestin HTS for Positive Allosteric Modulators of the Human D2 Dopamine Receptor: Potentiators | hit rate 0.23% among 360,000 | potentiation, % (concentration not given with the values) | DiscoveRx D2 beta-arrestin cells, luminescence, 90 min; 100% = 57 uM dopamine signal | D(2) dopamine receptor (Homo sapiens), P14416; active = potentiation of 50% or more; inconclusive = 30% to 50%; inactive = 30% or less;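 note: compound concentration not given in the record; tested on top of an EC20 dose of dopamine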
Target sequence (P14416 whole entry, looked up): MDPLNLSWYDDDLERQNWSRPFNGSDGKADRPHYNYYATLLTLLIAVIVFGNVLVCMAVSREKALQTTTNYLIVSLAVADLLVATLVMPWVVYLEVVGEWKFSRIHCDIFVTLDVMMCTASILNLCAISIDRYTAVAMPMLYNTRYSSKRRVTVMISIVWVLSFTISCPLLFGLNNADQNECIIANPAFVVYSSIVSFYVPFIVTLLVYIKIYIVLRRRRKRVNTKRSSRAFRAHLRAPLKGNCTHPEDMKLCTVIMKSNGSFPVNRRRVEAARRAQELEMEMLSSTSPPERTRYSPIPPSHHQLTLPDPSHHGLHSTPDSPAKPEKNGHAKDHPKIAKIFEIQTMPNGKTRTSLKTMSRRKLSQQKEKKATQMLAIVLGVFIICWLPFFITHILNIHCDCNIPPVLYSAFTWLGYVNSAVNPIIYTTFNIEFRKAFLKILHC
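D2 cells co-treated with compound plus 50 nM dopamine (EC20) for 90 min at 37 deg C to detect potentiation. Beta-arrestin recruitment was read as enzyme-fragment luminescence after 1 h at ambient temperature. Full response was set by 57 uM dopamine.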
* = called active by the depositor; u = inconclusive; x = no result given; [ ] = another dose, or the depositor's remark. No enrichment for hits, and some 5.1% of all compounds hit somewhere here.

Values run as follows: Sfp inh	gsp antag	gsp ag	Menin-MLL FL inh	TRPV1 PAM	ClpP mod	D2 potentiator
COc1c(Br)cc(Br)cc1/C=N/n1c(C)nnc1C
  9%	8%	17%	1.2	6	-1.3%	-23
CCCOc1cc(NCc2ccccc2)c2ncn(C(C)C)c2c1
  x	-6%	x	x	-9	-0.8%	-5
COc1ccc2nc(N3CCCC(C(=O)NCCc4ccc(OC)c(OC)c4)C3)sc2c1 (stereo not given)
  -1%	u	27%[15.4 µM]	-0.3	-1	x	7
C=CCN(C(=O)CCC(=O)Nc1cc(C)on1)C(C(=O)NC1CCCC1)c1cccnc1 (stereo not given)
  14%	15%	-10%	3.4	21	1.0%	6
O=C(NCc1ccco1)c1cc2ccc(O)cc2oc1=O
  28µM*	10%	-28%	8.6	8	-1.4%	26
O=C(CCCc1c[nH]c2ccccc12)NCc1ccc2c(c1)OCO2
  3%	2%	u	1.1	-11	-1.9%	0
C[C@@H]1CCCCO[C@H](CN(C)Cc2ccccc2)[C@@H](C)CN([C@H](C)CO)C(=O)c2cc(NS(=O)(=O)c3ccc(Cl)cc3)ccc2O1
  x	x	-7%	x	x	1.3%	6
Cc1ccc(-c2csc3ncn(CC#N)c(=O)c23)cc1
  -17%	-3%	-5%	1.6	-11	-2.0%	-1
COC1=CC(=O)C(O)=C(CCCCCCC/C=C/CCCCCCCC2=C(O)C(=O)C=C(OC)C2=O)C1=O
  x	-10%	x	x	x	-0.3%	-26
COc1cccc(N2CCN(C(=O)c3ccc(CS(=O)Cc4ccc(Cl)cc4)o3)CC2)c1 (stereo not given)
  -3%	u	-48%[inhibitor]	0.5	26	1.0%	3
CCOc1ccc(/C=N/OCC(=O)Nc2cc(S(=O)(=O)N3CCOCC3)ccc2OC)cc1
  x	3%	4%	x	x	2.0%	-10
COc1ccc(N(C(=O)Cn2nnc(-c3ccc(Cl)cc3)n2)C(C(=O)NCC2CCCO2)c2ccc(C)cc2)cc1 (stereo not given)
  11%	15%	-60%[inhibitor]	2.9	2	-0.4%	-13
Cc1ccc(NC(=O)NCC(c2cccnc2)N2CCOCC2)cc1 (stereo not given)
  14%	8%	-18%	-6.8	-29	3.8%	9
CCOC(=O)c1ccc(N2C(=O)CC(N(C)CCc3ccc(OC)c(OC)c3)C2=O)cc1 (stereo not given)
  2%	3%	-71%[inhibitor]	0.5	-7	1.8%	-5
O=C(c1ccc(F)cc1)C1CCN(Cc2ccc(F)cc2)CC1
  16%	0%	7%	0.8	-18	x	-17
Cc1ccc(SC(C)C(=O)NCCC2=CCCCC2)cc1 (stereo not given)
  8%	10%	7%[15.4 µM]	-2.2	-13	-2.2%	0
COc1c(O)cc2c(c1O)C(=O)CC(c1ccccc1)O2 (stereo not given)
  3%	x	x	-1.6	u	x	x
O=C(NCC1CCCO1)c1nn2c(C(F)(F)F)cc(-c3cc(Br)cs3)nc2c1Br (stereo not given)
  0%	u	-13%[15.4 µM]	x	12	x	0
CSCc1ccc(C(=O)N2CCCC(Nc3ccc4c(c3)OCCO4)C2)o1 (stereo not given)
  -5%	-9%	u	-5.4	-6	-0.1%	4
COc1ccc(NS(=O)(=O)c2cc(NC(=O)CC(=O)c3ccc([N+](=O)[O-])cc3)ccc2C)cc1
  5%	u	-36%[inhibitor]	-0.7	5	1.7%	1
CN(c1ccc(OCC(=O)N2CCCCC2)cc1)S(=O)(=O)c1cccs1
  9%	-8%	10%	2.7	-7	1.2%	-5
CCN(CC(=O)Nc1c(F)cccc1F)C(=O)c1cccc(S(=O)(=O)N2CCCCCC2)c1
  x	-5%	23%	x	-7	0.7%	-4
O=C(N/N=C/c1ccccn1)c1cc([N+](=O)[O-])cc([N+](=O)[O-])c1
  5%	-3%	6%	-4.9	11	0.1%	0
COc1cc(NC(=O)COC(=O)CSc2ccc3ccccc3c2)c(C)cc1[N+](=O)[O-]
  2%	6%	3%	1.1	13	0.3%	-20
CC(=O)c1cccc(NC(=O)C2CCCN(S(C)(=O)=O)C2)c1 (stereo not given)
  13%	5%	-21%	-2.6	-5	-0.9%	-3
N#Cc1ccc(C23CC4CC(CC(C4)C2)C3)[nH]c1=O
  10%	9%	u	-3.8	-16	16µM*	-19
C/C(=N\Nc1nccnc1Cl)c1ccc(F)cc1
  22µM*	x	-3%[15.4 µM]	5.8	7	x	-6
COc1ccc(CNC(=O)CCCN2C(=O)NC3(CCCC3)C2=O)cc1
  x	-2%	-5%	x	2	2.5%	16
Cc1c(/C=N\NC(=O)c2csc3ccccc23)cnn1C
  25%	-7%	7%	-1.5	-4	-5.6%	-11
Cc1ccc(NC(=O)COC(=O)/C=C/c2ccccc2)cc1S(=O)(=O)N1CCOCC1
  13%	4%	-32%	0.4	12	x	-3
O=C(CNC(=O)c1cccc(Br)c1)N/N=C/c1cc(Br)cc(Br)c1O
  -8%	7%	u	u	22	-7.7%	-5
COc1ccc(/C=C2\SC(=NCc3ccccc3)NC2=O)cc1
  8%	-21%	-3%	-0.4	-6	22µM*	-29
CCc1c(C)sc(NC(=O)OC)c1C(=O)N1CCOCC1
  -3%	11%	2%	4.8	9	-0.2%	-3
COc1ccc(-c2ccc(SCC(=O)N3CCOCC3)nn2)cc1OC
  -8%	6%	0%	-3.3	-2	-2.6%	24
CCOc1ccc(NC(=O)CN(C)CC(=O)Nc2cccc(Cl)c2C)cc1OCC
  5%	-5%	-28%	4.6	u	0.5%	-10
CCOC(=O)c1cc(OCC)c2c(ccc3ccccc32)n1
  x	x	u	x	x	-9.3%	-19
CCCOCC(O)COc1ccccc1C(=O)N1CCOCC1 (stereo not given)
  8%	0%	-26%	-4.4	u	-1.0%	-15
COc1ccc(/C=C/C(=O)c2ccc3c(c2)OCO3)cc1OC
  x	3%	2%	x	10	u	-15
COc1cc(CN2CCCC(CO)(Cc3cccc(Cl)c3)C2)cc2c1OCO2 (stereo not given)
  u	-1%	-8%	15	-11	0.5%	-33
Cn1c(=O)c2ncn(C)c2n(C)c1=O
  x	9%	u	x	x	x	-2
N#Cc1cc(S(=O)(=O)c2ccc(F)cc2)c(N)[nH]c1=O
  13%	11%	18%	-3.7	4	-3.0%	-2
Cc1cnc(CNC(=O)c2ccc(OC3CCN(C(=O)C4CC4)CC3)cc2)cn1
  -1%	-4%	u	-1.2	5	x	-5
COc1ccc2cc(CO)c(Cl)nc2c1
  20%	13%	17%	1.3	-1	-14%	-4
COc1ccc(NC(=O)C(CC(=O)O)C(C)c2ccccc2)cc1 (stereo not given)
  13%	4%	0%[15.4 µM]	-0.2	1	x	-3
CC(=O)Nc1nnc(Cc2c[nH]c3ccccc23)s1
  -1%	-10%	-2%[15.4 µM]	1.9	8	-3.2%	-3
Cc1nc(N2CCN(S(=O)(=O)c3ccc(F)cc3)CC2)c2c(C)c(C)sc2n1
  3%	3%	1%	1.3	x	-0.2%	1
CC(=O)/C=C(\C)Nc1ccccc1O
  u	-8%	0%	5.4	-7	-0.8%	4
Cc1cccc(-c2cc3nc(C)cc(NCCCN(C)C)n3n2)c1
  16%	8%	-33%	-1.1	12	32µM*	-9
Nc1c(C(=O)CSc2nnc(-c3ccccc3)o2)c(=O)[nH]c(=O)n1C1CC1
  x	4%	-1%	x	-15	-2.5%	0
COCCN(C(=O)c1cc(CN2C(=O)c3ccccc3C2=O)ccc1OC)c1c(N)n(CC(C)C)c(=O)[nH]c1=O
  x	-1%	-65%[inhibitor]	x	x	1.9%	3

Going on with the list:
Values run as follows: Sfp inh	gsp antag	gsp ag	Menin-MLL FL inh	TRPV1 PAM	ClpP mod	D2 potentiator
COC(=O)c1cc(COC(=O)c2ccc(OC)c(S(=O)(=O)N3CCCC3)c2)oc1C
  10%	-8%	13%	-0.7	2	-2.4%	-7
CCc1ccc(-c2ccc(SCC(=O)Nc3nnc(C)s3)nn2)cc1
  6%	-4%	-7%[15.4 µM]	-1.6	-20	-6.3%	-18
Clc1cc(Cl)c2nc(N3CCOCC3)sc2c1
  9%	-6%	u	5.5	0	1.2%	-13
COc1ccc(/C=N/NC(=O)c2nonc2N)cc1OC
  29%	10%	-24%[15.4 µM]	2.6	9	-0.1%	1
O=C(OCn1nnc2ccccc2c1=O)c1cc(-c2ccccc2Cl)nc2ccccc12
  13%	-6%	-9%	4.4	-12	x	-2
CCCC[C@@H]1CNCCN1CCc1cccc(F)c1
  x	14%	x	x	25	0.4%	-9
COc1ccc(CCNS(=O)(=O)c2cn(C)c(=O)n(C)c2=O)cc1OC
  21%	0%	-36%[inhibitor]	2.1	-8	0.6%	0
CCCCC(=O)Nc1nnc(C)s1
  15%	-1%	15%	0.3	3	-3.3%	-2
COc1ccc(NC(=O)CC2SC(N)=NC2=O)c([N+](=O)[O-])c1 (stereo not given)
  5%	12%	1%	0.1	8	1.4%	-3
COCc1cc(C)nc(SCC(=O)Nc2ccc3c(c2)OCO3)c1C#N
  14%	-9%	5%	0.0	8	-1.4%	-1
COc1cc2c(cc1OC)-c1cc(NC3CCCC3)nc(=O)n1CC2
  -20%	-2%	-20%	4.0	3	32µM*	4
Cc1ccsc1C(=O)OCC(=O)NCc1ccco1
  12%	5%	0%[15.4 µM]	-4.4	3	3.2µM*	-2
O=C(NNC(=O)c1ccc2ccccc2c1)c1cccc(Br)c1
  x	-19%	27%	x	x	x	0
Cc1nc(-c2cccnc2)sc1C(=O)N/N=C/c1ccccc1Cl
  u	18%	-10%[15.4 µM]	0.0	-4	x	2
COCc1n[nH]c(=S)n1-c1cccc2ccccc12
  -18%	4%	2%	0.2	-8	-0.1%	-1

Screens from PubChem.
